BJeLR viability: BJeLR cell viability loss | BJeLR (HRASV12) viability, CellTiter-Glo ATP luminescence, 48 h; reference of the scale not given here | inhibition, % (test concentration not listed) | actives 0.17% (n = 300,000);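 active means replicate mean above 50%; inconclusive means above 50% but judged a plate artefact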;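 further: 50 nL library stock added to about 25 µL; numbers are from one replicate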
PrP UTR inh: suppresses PrP 5' UTR mRNA reporter expression; cell-based PrP 5' UTR mRNA reporter, plate reader; inhibition, % (concentration not given with the values); actives 0.35% (n = 340,000); AID 488862;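 active means every replicate at 50% or more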;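 further: 0 = median of the neutral control wells; tested in H4 reporter cells; numbers are from one replicate; inactives centre near -14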
Bead autofluor: counter-screen for toxin protease inhibitors: compound fluorescence. compound autofluorescence counterscreen, microsphere flow cytometry; hits give high values. fluorescence intensity (no concentration beside the values). AID 624483. actives 3.1% (n = 360,000);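 active means at least 3 SD above the mean of all compounds, about 16000 in these data; inconclusive means too few beads counted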;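 further: 100 nL of 1 mM stock went into each well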
Mtb hypoxia rep: Mtb hypoxia fluorescent reporter inhibition. AID 1159583. fluorescence inhibition, % (no concentration beside the values). M. tuberculosis hypoxia-regulated fluorescent reporter, fluorescence. actives 0.1% (n = 300,000);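 active means 35 to 45% if threefold the growth effect, above 45% if 1.5-fold the growth effect; inactive means the rest, general growth blockers included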;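 further: wells of about 50 µL received 100 nL stock; 0% = vehicle wells and 100% = reference inhibitor wells; whole bacteria with a GFP reporter of the hypoxia response; strong numbers were not always called active; many hits fall short of the cut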
Sa RN4220 lethal: kills Staphylococcus aureus RN4220; S. aureus RN4220 growth, OD600, 16 h; inhibition, % (no concentration beside the values); actives 0.33% (n = 330,000); AID 1259311;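 active means z-score of -3 or lower and OD600 up to 0.18 on both plates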;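 further: plate controls were untreated cells for no effect and reference antibiotic for full effect; stock transfer was 100 nL into about 80 µL; one replicate is shown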
ugtP null kill: kills S. aureus RN4220 lacking UgtP | S. aureus RN4220 ugtP deletion, OD600 growth, 16 h; some inactives read as strong as hits | growth inhibition, % (no concentration beside the values) | actives 0.54% (n = 330,000);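 active means z-score under -3 and OD600 up to 0.15 on both plates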;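 further: plate controls were untreated wells for no effect and antibiotic for full effect; wells of about 80 µL received 100 nL stock; the first replicate is given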
Mtb hypoxia rep growth: recorded beside Mtb hypoxia rep, whose call it bears; growth inhibition, %; measured here: M. tuberculosis growth (absorbance);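 0% = vehicle and 100% = reference antibiotic; read after six days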
* hit, by the source's call; ? = inconclusive; . = not tested or not shown.

mol	BJeLR viability	PrP UTR inh	Bead autofluor	Mtb hypoxia rep	Mtb hypoxia rep growth	Sa RN4220 lethal	ugtP null kill
Nc1ncnc2c1ncn2C1OC(CO)C(O)C1N (stereo not given)	-5	-6	5786	.	.	6.4	-14
CCc1nc2ccccc2n1Cc1ccc(OC)c(OC)c1	2	-3	2747	0	4	8.1	1
COc1ccc(C)cc1NC(=O)CSc1nnc(-c2ccccn2)n1Cc1ccco1	-7	-63	21479*	4	7	7.2	-1
COCCN(C(=O)c1cc(OC)c(OC)c(OC)c1)c1c(N)n(Cc2ccccc2)c(=O)[nH]c1=O	1	-16	3325	11	1	5.3	2
CCOc1nc(NCCc2ccc(OC)c(OC)c2)nc(NC(C)(C)CO)n1	2	-13	16988*	2	-4	1.1	5
CC1CCN(CC(=O)Nc2ccc(Cl)cc2[N+](=O)[O-])CC1	-2	-11	4301	13	13	13	7
O=C(CSc1nnc(C2COc3ccccc3O2)o1)Nc1nccs1 (stereo not given)	-11	-9	5925	.	.	1.6	3
Cc1cc(NC(=O)CSc2nc3c(c(=O)n2C)SCC3)no1	-5	-54	5702	9	12	0.9	12
O=C(O)c1cc(Br)ccn1	2	-26	2447	-14	-12	6.7	2
COc1ccc(CCNS(=O)(=O)c2cc(/C=C/C(=O)O)ccc2C)cc1OC	3	-34	4240	6	2	3.2	0
CN(C)c1nc(N)nc(-c2cccnc2)n1	1	2	2254	.	.	1.4	7
COc1ccccc1CNC(=O)COC(=O)C1CCN(c2ccc(C(F)(F)F)cn2)CC1	-1	-9	5209	7	11	2.7	8
COc1ccc(CNC(=S)Nc2cccc(C)c2)cc1	10	-14	3232	.	.	0.8	-6
O=C(Cc1cccs1)N1CCC(c2nc3c(nnn3Cc3ccccc3Cl)c(=O)[nH]2)CC1	21	-13	15540	-5	-4	-2.6	1
CC(=O)c1cccc(Nc2ncnc3ccc(Br)cc23)c1	-5	9	4028	6	7	3.3	-6
O=C(O)Cc1ccc2oc(-c3ccccn3)nc2c1	-1	-15	2932	-3	-4	-0.6	-1
O=C(CSc1ccc(/C=N/NC(=O)c2cccc(F)c2)o1)Nc1ccccc1	4	-4	8800	.	.	.	.
CC(=O)NC(Cc1ccccc1F)C(=O)NC1CCN(C(=O)NCc2ccccc2)CC1 (stereo not given)	3	-5	3653	.	.	.	.
c1ccc(-c2ccc(C(c3ccccc3)n3ccnc3)cc2)cc1 (stereo not given)	-13	1	4912	12	12	29	39
COC(=O)[C@]1(C)C[C@H]1[C@H](NP(=O)(c1ccccc1)c1ccccc1)c1ccccc1	2	-17	4325	.	.	.	.
COc1ccccc1NC(=S)N(C(C)C)C(C)c1ccccn1 (stereo not given)	-1	-12	4512	7	10	0.8	3
CC(C)CC(=O)Nc1ccc(-c2nc3ccccc3c(=O)[nH]2)cc1	7	-52	2611	.	.	.	.
CCCOc1ccc(S(=O)(=O)n2cc(F)c(=O)[nH]c2=O)cc1	-6	-28	3577	3	13	20	18
Cc1ccccc1OCC(=O)NCCCNC(=O)c1cccnc1	-6	-10	5093	5	4	-2.4	11
CCN(CC)C(=O)C[n+]1cccc(C(N)=O)c1	-8	-21	2438	0	13	-0.3	4
O=C(N=Nc1c(O)n(Cc2ccccc2)c2ccccc12)c1ccc(O)cc1	-4	-104	2528	9	1	-13	18
O=C(CCNc1ccc(Cl)c(C(F)(F)F)c1)c1ccco1	-4	0	4595	2	10	-1.2	-13
Clc1ccccc1-c1nc2ccccc2[nH]1	20	-81	.	15	17	0.6	-2
CC(C)(C)C1(C)OC(C(N)=O)C(C(N)=O)O1 (stereo not given)	-8	-15	3932	.	.	0.0	5
Nc1nc2ccccc2n1N=Cc1ccc(Br)cc1	.	.	.	5	-3	15	-14
CCOCCc1nnc(NC(=O)CCc2ccccc2)s1	8	11	2919	16	1	2.7	13
Cc1cc2n(n1)SC(Nc1ccc(F)cc1)N2 (stereo not given)	-2	-5	.	-3	3	0.5	6
CC(=NO)c1ccc(Cl)c(Cl)c1	.	.	.	15	2	4.3	-3
CC1CC2=C(NC(=S)NC2c2cccc(F)c2)/C(=C/c2cccc(F)c2)C1 (stereo not given)	3	-13	3361	3	-3	-1.7	12
c1ccc(Nc2ccc3c4c(cccc24)CC3)cc1	1	-29	?	0	14	10	45
Cn1c(=O)c2[nH]c(NN=Cc3cccc(Br)c3)nc2n(C)c1=O	.	-19	2860	7	5	2.2	-7
Cc1cc(Cc2cc(C)c(N)cc2C)c(C)cc1N	7	-27	4630	9	-3	-4.5	1
CC1CCC/C(=C\c2ccc(O)cc2)C1=O (stereo not given)	-6	-28	.	5	4	9.8	17
CC(=O)OCC1OC(n2ccc3ccccc32)C(OC(C)=O)C(OC(C)=O)C1OC(C)=O (stereo not given)	-2	-13	4628	.	.	1.5	-3
Cc1cc(C)n(C(=O)CCC2COc3ccccc3O2)n1 (stereo not given)	0	0	3679	.	.	6.8	10
O=C(N/N=C/c1cccc(Oc2ccccc2)c1)c1ccc(O)cc1O	-1	-11	5347	.	.	.	.
CC(=O)c1ccc(OC(C)c2nc3ccccc3s2)cc1 (stereo not given)	4	-35	3590	23	12	2.8	10
CC(=NNC(=O)c1cc(Br)ccc1O)c1ccccn1	.	.	.	9	0	14	-7
CCCCN(C)CCCNC(=O)CN1N=C(c2ccc(Cl)cc2)CCC1=O	2	-11	3663	14	7	3.8	10
CCC(=O)NC(=S)Nc1ccc(-c2nc3ccc(C)cc3s2)cc1	2	-75	2197	13	10	2.2	2
Brc1ccc(-c2noc(-c3ccccn3)n2)o1	1	-16	4145	11	1	4.5	5
Cc1ccc(C(=O)NN=Cc2ccc([N+](=O)[O-])s2)cc1	.	.	.	9	16	1.6	33
O=c1cc(N2CCc3ccccc3C2)[nH]c(=O)n1C1CCCCC1	-7	-17	2612	-6	-5	21	13
O=C(NC1CCCCC1)C1CCN(S(=O)(=O)N2CCCCCC2)CC1	-5	4	10638	-2	14	2.1	-3
CCC(=O)NC(Nc1nc2ccc(C)cc2s1)(C(=O)OC)C(F)(F)F (stereo not given)	-3	-25	2837	8	-3	2.6	2
NNC(=S)Nc1ccc(C(F)(F)F)cc1Cl	-15	-23	5606	4	7	-2.2	-2
CSc1nc2ccc(NC(=O)c3cccs3)cc2s1	.	-55	3772	-8	9	1.4	59
Cc1ccc(C2=Nc3c(ccc4ccccc34)C(c3ccncc3)=NN2)cc1	1	-22	2529	-9	-2	-2.1	-8
CSc1ccccc1OCc1cc(C(=O)N2C[C@H]3CC[C@H]2C3)no1	-3	-41	6130	1	-1	6.5	5
Cc1ccc(NS(=O)(=O)c2ccc(NC(=O)C(C)Sc3ccc(Cl)cc3)cc2)c(C)c1 (stereo not given)	-5	-11	2598	4	6	-9.6	-27
O=C(c1ccc(Cl)cc1)C1CCCN(C(=O)/C=C/c2ccccn2)C1 (stereo not given)	-5	-23	3958	5	-9	7.1	3

Next results.
mol	BJeLR viability	PrP UTR inh	Bead autofluor	Mtb hypoxia rep	Mtb hypoxia rep growth	Sa RN4220 lethal	ugtP null kill
COc1ccc(C=NNC(=O)c2ccc(COc3cccc4cccnc34)cc2)cc1OC	.	.	.	4	8	4.8	10
O=C(Nc1ccc(N2CCCC2)cc1)c1cc(Cl)ccc1Cl	44	-16	2988	4	3	20	10
CCOCCn1c(C(C)O)nc2ccccc21 (stereo not given)	1	-8	3238	-3	6	12	3
Cc1ccc(C(C(=O)NCC2CCCO2)N(C(=O)c2snc(C(N)=O)c2N)c2ccc(C(C)C)cc2)o1 (stereo not given)	-2	1	3747	-2	-15	-5.8	-12
CCCOc1ccc(Cc2c(Cl)nc(SC)nc2NC)cc1	20	-11	2084	2	9	-10	80
Cn1ncc(Br)c1NC(=O)c1ccco1	-9	-13	3760	17	4	3.4	6
Cc1nc(-c2cccc(S(=O)(=O)N3CCCCCC3)c2)cs1	-4	-26	2927	10	6	6.5	-14
Cc1ccc(NC2(C#N)CCCC2)cc1	.	-7	3244	2	-4	1.4	3
CN1C(=O)C(=O)N(CC(=O)Nc2ccccc2OC(F)F)C1=O	.	-10	7753	6	5	3.1	6
O=C1C2CC=CCC2C(=O)N1c1n[nH]c(CCc2ccccc2)n1 (stereo not given)	-2	7	18666*	5	8	3.1	2
O=S(=O)(c1ccccc1)n1ccc(-c2cnc(-c3ccccc3)s2)n1	-5	-83	3844	20	18	-3.1	24
CC(=O)NCCc1nc2ccccc2n1CCOc1cccc(C)c1	4	-6	4482	-5	1	3.1	0
COc1cccc(NC(=O)CCP(C)(=O)O)c1	-8	-26	2587	.	.	4.8	-3
CCOC(=O)C1=C(C)N=c2sc(=Cc3ccc(OCC(=O)O)cc3)c(=O)n2C1c1ccc(OC)cc1OC (stereo not given)	.	.	.	2	-4	6.7	3
COc1c2ccccc2nc2ccccc12	12	-19	3313	9	17	2.7	-2
O=C(NC1CCCCC1)C(=O)c1c(-c2ccccc2)[nH]c2ccccc12	1	-15	5837	4	12	-1.3	2
CCS(=O)(=O)c1nc(S(=O)(=O)c2ccc(C)cc2)c(N2CC(C)OC(C)C2)s1 (stereo not given)	0	-30	5741	-4	8	1.0	6
CCN(CC)CCCNC(=O)c1cn(CC)c2ccc(S(=O)(=O)N(C)C3CCCCC3)cc2c1=O	9	-4	4155	1	-2	7.1	15
CC(C)C(NC(=O)c1ccccc1NC(=O)c1ccco1)C(=O)O (stereo not given)	0	-13	3989	16	-2	0.1	6
CN(C1CCCCC1)S(=O)(=O)c1ccc2c(c1)CCC(=O)N2	.	-10	5221	-9	-2	5.2	3
O=C(CSc1ccc(-c2ccc(F)cc2)nn1)N1CCN(c2ccccc2)CC1	7	-33	10878	5	-13	0.3	0
Cc1ccc(C)c(NC2=NCCCS2)c1	-6	11	2293	-7	-4	2.5	2
CCOC(=O)N1CCN(C(=O)c2ccc3c(SCC(=O)O)c4c(nc3c2)CCC4)CC1	5	-16	5450	-3	-7	-0.9	-3
C[C@H](NC(=O)[C@@H]1Cc2ccccc2CN1C(=O)OC(C)(C)C)C(=O)NC1CCCCC1	-7	-22	5216	1	1	-4.0	8

4 entries drawn at random from the list so far, as already listed:
mol	BJeLR viability	PrP UTR inh	Bead autofluor	Mtb hypoxia rep	Mtb hypoxia rep growth	Sa RN4220 lethal	ugtP null kill
CN(C1CCCCC1)S(=O)(=O)c1ccc2c(c1)CCC(=O)N2	.	-10	5221	-9	-2	5.2	3
C[C@H](NC(=O)[C@@H]1Cc2ccccc2CN1C(=O)OC(C)(C)C)C(=O)NC1CCCCC1	-7	-22	5216	1	1	-4.0	8
Cc1ccc(C)c(NC2=NCCCS2)c1	-6	11	2293	-7	-4	2.5	2
CC(C)C(NC(=O)c1ccccc1NC(=O)c1ccco1)C(=O)O (stereo not given)	0	-13	3989	16	-2	0.1	6

New compounds follow:
mol	BJeLR viability	PrP UTR inh	Bead autofluor	Mtb hypoxia rep	Mtb hypoxia rep growth	Sa RN4220 lethal	ugtP null kill
COC(=O)c1ccc(OCC(=O)c2ccc(O)cc2O)cc1	-1	-26	24431*	-7	-3	-0.5	-4
Cc1ccc(S(=O)(=O)N2CCCC2C(=O)Nc2nc3ccccc3s2)cc1 (stereo not given)	-2	-15	20751*	-4	-2	2.6	11
CCN(CC)C(=O)c1sc(NC(=O)c2ccncc2)c(C(=O)OC)c1C	-4	-30	2181	3	-2	9.7	8
CCOc1cc(N2CCOCC2)c(OCC)cc1NC(=O)c1ccc(OC)cc1	-2	-30	4224	4	9	9.5	6
Cc1cc(C(=O)Nc2cnn(Cc3ccc(Cl)cc3Cl)c2)no1	.	-2	10569	6	11	-0.8	-9
COc1ccc(C2CC(c3ccccc3)=NN2C(=O)COC(=O)c2cccc(S(=O)(=O)N(C)C)c2)cc1 (stereo not given)	7	-26	1947	9	-3	1.9	0
COc1cc(/C=N/NC(=O)C2COc3ccccc3O2)ccc1O (stereo not given)	-1	-19	4320	.	.	.	.
CC(=O)N[C@@H](Cc1c[nH]c2ccccc12)C(=O)OCC(=O)Nc1ccc(S(=O)(=O)N(C)C)cc1	1	-8	4218	9	5	0.8	-2

An unsorted share of the library (roughly 4% active in at least one column).
